Screens from PubChem BioAssay.
PV pol inh: poliovirus RNA polymerase inhibition; poliovirus polymerase elongation, fluorescence polarization; active compounds read low; % elongation, % (compound at 16.7 µg/mL); hit rate 0.66% among 150,000; AID 588519; in the data active = % elongation below about 90%; note: some results filed as inactive read as strong as hits
Target sequence (P03300 1749-2209 limits assumed): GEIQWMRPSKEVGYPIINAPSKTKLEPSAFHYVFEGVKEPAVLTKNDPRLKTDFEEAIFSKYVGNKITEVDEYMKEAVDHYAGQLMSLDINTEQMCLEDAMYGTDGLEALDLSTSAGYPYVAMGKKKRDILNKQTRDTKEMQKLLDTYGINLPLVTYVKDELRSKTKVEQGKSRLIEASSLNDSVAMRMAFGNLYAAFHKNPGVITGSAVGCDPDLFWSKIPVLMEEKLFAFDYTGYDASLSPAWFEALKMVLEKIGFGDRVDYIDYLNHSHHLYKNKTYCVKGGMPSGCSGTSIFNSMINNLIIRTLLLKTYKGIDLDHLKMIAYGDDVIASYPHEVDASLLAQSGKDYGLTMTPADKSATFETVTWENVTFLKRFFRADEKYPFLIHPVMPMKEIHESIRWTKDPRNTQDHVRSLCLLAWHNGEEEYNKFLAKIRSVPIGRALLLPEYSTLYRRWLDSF
Mtb MbtI inh: blocks the Mycobacterium tuberculosis siderophore enzyme MbtI | purified MbtI enzyme, fluorescence intensity read-out | P9WFX0 | hit rate 0.89% among 100,000 | inhibition, %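 (about 17 µg/mL by stock and volumes)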;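 active = above 50% in both replicates, above 80% if mildly self-fluorescent; inactive = the rest, strongly fluorescent compounds included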;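 note: 0% = mean of negative and 100% = mean of positive controls; one replicate is shown; some compounds called inactive have numbers as strong as hits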
MenB inh: blocks the Mycobacterium tuberculosis MenB enzyme; P9WNP5; MenB enzyme assay, absorbance read-out; some hits fall short of the stated cut; inhibition, %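 (about 12 µg/mL by stock and volumes)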; hit rate 0.43% among 100,000; AID 540299;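 active = mean of two replicates above 30%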;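 note: 0% = no compound and 100% = wells with inactive enzyme; the first replicate is given; strong numbers were not always called active; inactives centre near -10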
Target sequence (P9WNP5 whole entry, looked up): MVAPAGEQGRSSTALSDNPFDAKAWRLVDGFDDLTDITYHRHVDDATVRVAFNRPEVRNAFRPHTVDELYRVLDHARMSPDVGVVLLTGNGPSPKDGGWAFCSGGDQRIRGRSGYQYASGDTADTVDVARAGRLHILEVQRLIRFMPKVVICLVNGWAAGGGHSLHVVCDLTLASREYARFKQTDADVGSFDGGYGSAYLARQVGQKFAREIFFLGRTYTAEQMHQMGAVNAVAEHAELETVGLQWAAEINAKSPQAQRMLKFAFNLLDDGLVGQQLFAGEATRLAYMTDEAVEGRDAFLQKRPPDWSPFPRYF
PV pol inh intensity: second read-out of PV pol inh, no call of its own (marks repeat the call); % elongation; measured here: total intensity read-out; formula for this scale not given here;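 total fluorescence in place of polarization; lower means less elongation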
Numbers without * were called inactive; i = inactive; / = not tested or not shown.

structure	PV pol inh	PV pol inh intensity	Mtb MbtI inh	MenB inh
Cn1c(=O)c(Nc2ccccc2)c2c3c(cccc31)C(=O)c1ccccc1-2	90	117	-9	-10
COc1ccccc1OCC#CCn1cnc2ccccc2c1=O	102	103	-12	-15
CN1CCc2c(n(CC(O)CN(CCO)CCO)c3ccccc23)C1=O (configuration not stated)	102	100	42	-2
CC(C)Cn1c2ccccc2c2ccccc21	103	94	32	-21
COc1ccc(C(=O)COC(=O)CN2c3nc4ccccc4nc3C3C=CC=CC32)cc1 (configuration not stated)	99	98	19	-5
CCOC(=O)Cc1csc(NC(=O)c2ccccc2)n1	102	104	9	-8
Cc1ccc(CC(=O)N2CCCc3ccccc32)cc1	101	104	-7	-7
CCOC(=O)/C=c1\s/c(=C\c2cccs2)c(=O)n1CC(=O)N1CCCC1	105	118	8	-13
O=C(Oc1ccccc1-c1ccccc1)c1cncc(Br)c1	101	102	-35	/
CCN(CC)C(=O)c1ccc2c(c1)C1C3CCC(C3)C1C(c1ccccc1)N2 (configuration not stated)	105	109	-3	-23
CCc1ccc(C2C(C#N)=C(C)NC3=C2C(=O)CC(C)(C)C3)cc1 (configuration not stated)	109	109	/	-20
CCc1ccc2oc(-c3ccc(OC)cc3)cc(=NCC(=O)O)c2c1	102	99	i	-12
O=C(COn1nnc2ccc(Cl)cc21)NC(=O)NC1CCCCC1	103	108	30	-7
Cc1cccc2c1NC(C)CC2C (configuration not stated)	101	102	7	0
CC(C)Sc1nnc(NC(=O)NC(C)(C)C)s1	104	99	-8	-26
CCCC(=O)Oc1ccc2ccc(=O)oc2c1	102	103	i	-14
CC1CN(C(=O)C2=NN(c3ccccc3)C(=O)CC2)CC(C)O1 (configuration not stated)	98	103	2	9
Cc1c(C(=O)Cn2cnc3ccccc32)c2ccccc2n1C	102	100	2	-10
CCn1nc(C)c(Br)c1C(=O)Sc1ccc(OC)cc1	97	91	10	5
O=C(Cc1ccc(-n2cccc2)cc1)Nc1ccc(Cl)cc1	101	99	-1	-8
CCCCNC(=O)Cn1c(=O)sc2ccccc21	102	99	-7	-13
Cc1ccc(S(=O)(=O)CCC(=O)N(Cc2nnc(-c3ccc(Cl)cc3)o2)C2CC2)cc1	108	111	-10	-35
CC(=O)N1CCN(c2ccc(Oc3nc(-c4ccccc4)nc4ccccc34)cc2)CC1	104	106	34	-28
Cn1c(=O)[nH]c(=O)c2c1nc1n2CCCN1c1ccccc1	101	103	-12	36*
COc1ccc(N=C2SC(C(=O)Nc3ccccc3)CC(=O)N2C)cc1 (configuration not stated)	104	103	-3	-71

A portion from the list above, as a working copy:
structure	PV pol inh	PV pol inh intensity	Mtb MbtI inh	MenB inh
O=C(Cc1ccc(-n2cccc2)cc1)Nc1ccc(Cl)cc1	101	99	-1	-8
CCCCNC(=O)Cn1c(=O)sc2ccccc21	102	99	-7	-13
Cc1ccc(S(=O)(=O)CCC(=O)N(Cc2nnc(-c3ccc(Cl)cc3)o2)C2CC2)cc1	108	111	-10	-35
CC(=O)N1CCN(c2ccc(Oc3nc(-c4ccccc4)nc4ccccc34)cc2)CC1	104	106	34	-28
Cn1c(=O)[nH]c(=O)c2c1nc1n2CCCN1c1ccccc1	101	103	-12	36*

Next section.
structure	PV pol inh	PV pol inh intensity	Mtb MbtI inh	MenB inh
O=C(NCc1ccco1)C12CC3CC(CC(C3)C1)C2	103	100	-22	-31
CCOC(=O)CSc1nc2ccccc2n1Cc1ccccc1	99	100	-3	-22
COc1cc(CNCCc2ccccc2)cc(OC)c1	102	107	-3	4
Cc1occc1-c1nnc(SCc2nc3ccccc3s2)n1Cc1ccccc1	104	101	45	-4
CCn1c(SCC(=O)N2CCC(C)CC2)nc2c(c1=O)SCC2	100	100	9	-11
Cc1ccc(S(=O)(=O)NCCN2CCNC2=O)cc1	98	94	-3	9
Cc1cccc2sc(NC(=O)[C@@H]3CCCN3C(=O)c3cccs3)nc12	102	109	13	-24
CCN1C(=O)c2cccc3c(Cl)cc(Cl)c1c23	99	100	5	/
CCCN(Cc1nnc(-c2ccccc2Cl)o1)C(=O)Cc1coc2cc(C)c(C)cc12	100	109	-7	-15
CCC(C)(C)NS(=O)(=O)c1ccc(Cl)cc1F	104	102	-14	-13
O=S(=O)(/C=C/c1ccccc1)N1CCN(CCc2ccncc2)CC1	98	97	-5	-3
COC(=O)c1cc(C2CC2)nc2c1c(C)nn2-c1ccccc1	103	102	18	-15
Cc1cc(C)n(-c2ccc(C(=O)OCc3nc4ccccc4c(=O)n3CC#N)cc2)n1	107	110	19	-37
CCOC(=O)C12C(=O)OC(C)(C)C1C2(CC)C(=O)c1ccc(C)cc1 (configuration not stated)	99	100	-4	-44
O=C(c1ccco1)N1CCN(Cc2cccc(Br)c2)CC1	99	100	9	15
CCCCN1Cc2c(nc3cc(C(C)(C)C)[nH]n3c2=O)C1=O	103	103	3	20
CCCC(=O)Nc1ccc(Cl)c(NC(=O)c2ccc(Br)o2)c1	99	102	-1	5
O=C(O)c1ccc(-n2cccn2)cc1	102	101	19	10
Cc1nnc(SC(C)C(=O)Nc2ccc3c(c2)OCCO3)s1 (configuration not stated)	104	106	-5	-11
CCOc1ccccc1C(=O)N[C@H](C(=O)Nc1nccs1)C(C)C	104	97	-16	-9
CC(C)Cn1c(SCc2cn3ccsc3n2)nc2sc3c(c2c1=O)CCCC3	105	108	-15	-13
CCN(CC)c1cccc(OC(=O)Nc2ccc(Cl)cc2)c1	104	104	13	-14
Cc1ccccc1NCCC(=O)O	99	98	-6	/
Nc1nc(N2CCCC2)ncc1S(=O)(=O)c1ccc(C(F)(F)F)cn1	111	117	-6	-7
C#C[C@]1(O)CCC2C3CCC4=C(CCC(=O)C4)C3CC[C@@]21C (some centres not stated)	99	103	-7	7

By substructure, the entries above containing a cyano group (two)
structure	PV pol inh	PV pol inh intensity	Mtb MbtI inh	MenB inh
CCc1ccc(C2C(C#N)=C(C)NC3=C2C(=O)CC(C)(C)C3)cc1 (configuration not stated)	109	109	/	-20
Cc1cc(C)n(-c2ccc(C(=O)OCc3nc4ccccc4c(=O)n3CC#N)cc2)n1	107	110	19	-37

In another format: results already given
smiles: O=C(O)c1ccc(-n2cccn2)cc1
- PV pol inh: 102
- PV pol inh intensity: 101
- Mtb MbtI inh: 19
- MenB inh: 10
smiles: Cc1nnc(SC(C)C(=O)Nc2ccc3c(c2)OCCO3)s1 (configuration not stated)
- PV pol inh: 104
- PV pol inh intensity: 106
- Mtb MbtI inh: -5
- MenB inh: -11
smiles: CCOc1ccccc1C(=O)N[C@H](C(=O)Nc1nccs1)C(C)C
- PV pol inh: 104
- PV pol inh intensity: 97
- Mtb MbtI inh: -16
- MenB inh: -9
smiles: CC(C)Cn1c(SCc2cn3ccsc3n2)nc2sc3c(c2c1=O)CCCC3
- PV pol inh: 105
- PV pol inh intensity: 108
- Mtb MbtI inh: -15
- MenB inh: -13

Going on with the list:
structure	PV pol inh	PV pol inh intensity	Mtb MbtI inh	MenB inh
Cc1cc(C)c2nc(C(F)(F)F)nc(N3CCN(c4ccccc4F)CC3)c2c1	99	99	13	-6
CCOc1ccc(CN(C)C(=O)[C@H](C)NC(=O)c2ccco2)cc1OC	107	107	0	-32
CC12CCC(C(=O)O)(OC1=O)C2(C)C (configuration not stated)	104	102	-1	-10
O=C(CSc1nc2ccccc2c(=O)n1-c1ccc(Cl)c(Cl)c1)N1CCOCC1	100	94	-13	-1
CCC(=O)Nc1ccc2c(c1)nc1n2CCN(CCOC)C1	102	103	87	-20
CC1CCc2c(sc3ncnc(Oc4ccc(NC(=O)c5ccco5)cc4)c23)C1 (configuration not stated)	106	96	-9	-25
CCN(CC)CCOc1ccc(Cl)cc1C	104	105	-14	-16
O=C(O)/C=C1\SC(=O)N(c2ccccc2)C1=O	100	102	20	-22
CN(C)Cn1c(O)c(N=NC(=O)Sc2nc3ccccc3s2)c2ccccc21	103	106	18	-22
Cc1cccc(-c2noc(COc3ccccc3)n2)c1	103	105	3	-9
CC(C)CN1C(=O)c2ccc(-c3nc4ccccc4c(=O)o3)cc2C1=O	98	103	25	0
C=CCOc1ccc2c(=O)c(Oc3cccc(C)c3)coc2c1	102	95	6	-24
COc1ccc(Nc2ncc(C)s2)cc1	102	103	54	-9
O=C(CN1CCN(C(=O)N2CCCCC2)CC1)Nc1ccc(F)cc1	102	104	-4	-36
O=C(NCc1ccco1)C1CCN(c2nc3ccc(Br)cc3s2)CC1	100	103	-8	-5
CCCCNS(=O)(=O)c1ccc2nc(SC(C)C(=O)N3CCCC3)[nH]c2c1 (configuration not stated)	97	94	15	-31
CCS(=O)(=O)c1ccc(-c2cccc(NC(=O)c3ccc(Br)o3)c2)nn1	104	105	1	-4
C=CCn1c(=S)sc2c(=O)n(Cc3ccc(C#N)cc3)cnc21	100	99	10	-21
CCN(N)C(=S)Nc1ccccc1	103	106	1	-12
O=C(c1cnc2n(c1=O)CCS2)N(c1ccccc1)C1CCCCC1	103	109	-10	-14
CC(C(=O)Nc1ccc(S(=O)(=O)N2CCCCC2)cc1)N(C)Cc1nc2ccccc2c(=O)[nH]1 (configuration not stated)	103	104	-42	-17
COc1ccc(N2CCN(C(=O)CCC(=O)c3ccccc3)CC2)cc1	102	101	3	-23
CC(C)(C)n1ncc(O)c(Cl)c1=O	104	103	16	-7
O=C1c2ccccc2-c2nn(CC(=O)N3CCOCC3)c3cccc1c23	45	248	/	-16
CC1CCC(NC(=O)C2CCCN(C(=O)c3cc4sccc4n3C)C2)CC1 (configuration not stated)	102	105	2	-1
CCCCC(CC)n1[nH]c(=O)cc1N (configuration not stated)	102	103	-5	6
C[C@@H](C(=O)N1CCSC1=NCc1ccccc1)N1C(=O)C2CC=CCC2C1=O (some centres not stated)	100	108	0	-9
O=C(NC1CCCC1)C(c1ccc(N2CCOCC2)cc1)N(Cc1ccco1)C(=O)c1ccco1 (configuration not stated)	102	104	-14	-33
Cc1ccc(-c2noc(CNC(=O)CN(C)S(=O)(=O)c3ccc(C)cc3)n2)cc1	102	101	-12	-12
Cc1cc(C)c2oc(-c3ccc(N/C=c4\c(C)c(C#N)c5nc6ccccc6n5c4=O)cc3)nc2c1	102	109	21	-3
Cn1c(C(O)c2ccccc2)n[nH]c1=S (configuration not stated)	101	103	24	8
Cc1ccc(C)c(S(=O)(=O)Nc2cc(Cl)c3oc(=O)sc3c2)c1	90	102	62*	-56
C=CC1=C(C(=O)O)N2C(=O)[C@@H](NC(=O)/C(=N/OCC(=O)O)c3csc(N)n3)[C@H]2SC1 (stereo in doubt)	102	100	3	-7
Cc1ccc(S(=O)(=O)N2CCN(C(=O)COC(=O)C3=COCCO3)CC2)c(C)c1	104	104	-1	7
CCN(CC)C(=O)CSc1nnc2c3ccccc3n(C)c2n1	103	101	-18	-1
Cc1ccccc1Nc1nc(CSc2nnc(CN3CCCC3=O)o2)cs1	107	115	18	-33
OCCC12CC3CC(CC(C3)C1)C2	105	108	6	-16
COc1ccc2c(OC)ccc3c2c1C=CC3=O	51	236	-1	-61
c1ccc(-n2cnnc2SCc2nc3ccccc3s2)cc1	107	109	-4	-10
Cn1ccnc1SCC(=O)Nc1ccc(S(=O)(=O)Nc2ncccn2)cc1	102	102	-9	-28
Clc1ccc(CSCc2cn3ccsc3n2)cc1	100	106	-8	-11
CSc1nc2ccccc2n1CC(=O)N1CCN(c2ccccc2)CC1	/	/	3	-6

Profiles, quoted from the list. Order of values: PV pol inh	PV pol inh intensity	Mtb MbtI inh	MenB inh
Cc1cc(C)c2oc(-c3ccc(N/C=c4\c(C)c(C#N)c5nc6ccccc6n5c4=O)cc3)nc2c1 is listed with 102	109	21	-3
COc1ccc2c(OC)ccc3c2c1C=CC3=O is listed with 51	236	-1	-61
